B2AR ag: agonists of human beta-2 adrenergic receptor inducing internalization; Am2.2-beta2AR cells, FAP receptor internalization, flow cytometry; reference of the scale not given here; response, % (no concentration beside the values); hit rate 0.43% among 340,000; P07550;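 active = response above a set limit, near 3 SD of response in nonfluorescent compounds, cut at about 42% in these data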;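 note: stock transfer was 100 nL into about 11 µL; a reference agonist was the positive control; negative values mostly stem from fluorescent compounds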
ALR inh: blocks human ALR sulfhydryl oxidase activity; inhibition, % (no concentration beside the values); hit rate 3.8% among 290,000; purified ALR, DTT oxidation, H2O2 HRP-luminol luminescence; AID 485317; P55789;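 active = mean and each replicate at 75% or more; inconclusive = only one of the two met; inactive = neither met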;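 note: stock transfer was 7.5 nL into about 7.5 µL; 0% = neutral wells and 100% = wells with inactivated enzyme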
Calb FLC: C. albicans growth modulation with fluconazole; hit rate 0.57% among 300,000; AID 1979; C. albicans CaCi-2 (fluconazole-resistant clinical isolate) + fluconazole, Alamar Blue growth, 48 h; growth inhibition, % (no concentration beside the values);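 active = most replicates above 75%; inconclusive = exactly half above 75%; inactive = most below 75%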;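 note: all wells also contain fluconazole at 8 µg/ml as a sub-toxic cotreatment; 0% = median of DMSO wells and 100% = median of geldanamycin control wells; wells of about 8 µL received 7.5 nL stock; the first replicate is given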
Beta apoptosis: blocks beta cell apoptosis. AID 435005. hit rate 0.8% among 300,000. INS-1E cytokine-induced death, ATP luminescence, 48 h; percent of positive-control rescue, neutral wells zero. protection from apoptosis, % (concentration not given with the values);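 active = all replicates at 75% or more, or half of them and the mean; inconclusive = half reach 75% but not the mean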;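 note: 0% = cytokine-treated negative control wells and 100% = positive control rescue; higher means more ATP so stronger rescue from cytokine killing; wells of about 40 µL received 100 nL stock; the first replicate is given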
LANA-H2B inh: blocks KSHV LANA binding to histone H2A/H2B | inhibition, % (no concentration beside the values) | cell-free LANA-H2A/H2B peptide, fluorescence polarization | Q9QR71 | hit rate 0.6% among 320,000; in the data active = inhibition mostly above about 10%, no sharp cut-off; inactive = mostly below about 6.7%;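 note: stock transfer was 7.5 nL into about 10 µL; 0% = median of vehicle wells and 100% = median of positive control wells; one replicate is shown; the record names a cut of 25% in any replicate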
Target sequence (Q9QR71 whole entry, looked up): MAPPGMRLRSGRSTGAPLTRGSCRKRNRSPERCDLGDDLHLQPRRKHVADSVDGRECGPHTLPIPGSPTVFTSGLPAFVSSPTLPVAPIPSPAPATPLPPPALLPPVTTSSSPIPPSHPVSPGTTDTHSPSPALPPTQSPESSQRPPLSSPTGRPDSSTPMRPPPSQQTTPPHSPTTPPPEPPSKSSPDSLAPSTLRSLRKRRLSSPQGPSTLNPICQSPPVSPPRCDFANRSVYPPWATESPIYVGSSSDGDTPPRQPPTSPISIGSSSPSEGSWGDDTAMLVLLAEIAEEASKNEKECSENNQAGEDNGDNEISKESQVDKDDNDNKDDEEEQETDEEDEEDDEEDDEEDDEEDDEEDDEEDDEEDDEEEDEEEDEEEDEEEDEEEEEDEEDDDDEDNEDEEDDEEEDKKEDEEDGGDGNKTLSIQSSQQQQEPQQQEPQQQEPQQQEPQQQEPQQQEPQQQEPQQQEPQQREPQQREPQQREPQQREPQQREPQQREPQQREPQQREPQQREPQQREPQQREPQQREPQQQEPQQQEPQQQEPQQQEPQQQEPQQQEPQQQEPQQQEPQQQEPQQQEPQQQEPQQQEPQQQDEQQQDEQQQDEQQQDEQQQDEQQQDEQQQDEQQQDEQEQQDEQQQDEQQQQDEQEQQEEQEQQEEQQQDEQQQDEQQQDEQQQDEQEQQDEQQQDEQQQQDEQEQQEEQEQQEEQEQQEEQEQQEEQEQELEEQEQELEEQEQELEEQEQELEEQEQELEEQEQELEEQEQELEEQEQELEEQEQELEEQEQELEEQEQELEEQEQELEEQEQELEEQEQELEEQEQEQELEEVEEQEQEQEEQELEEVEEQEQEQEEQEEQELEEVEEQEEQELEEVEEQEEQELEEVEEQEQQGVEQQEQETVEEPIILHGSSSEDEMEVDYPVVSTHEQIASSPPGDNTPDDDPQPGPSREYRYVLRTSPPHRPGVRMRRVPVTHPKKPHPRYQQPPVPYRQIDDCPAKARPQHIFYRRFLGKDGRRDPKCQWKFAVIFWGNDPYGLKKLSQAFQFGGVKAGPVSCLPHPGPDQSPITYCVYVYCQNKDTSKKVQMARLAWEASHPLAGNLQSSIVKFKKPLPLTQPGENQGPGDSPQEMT
A1 inh: inhibitors of the anti-apoptotic protein A1, read as caspase activation. MEF A1-2A-BIM cells, Caspase-Glo 3/7 luminescence, 3 h; percent of clofoctol response, vehicle zero. AID 2462. hit rate 0.066% among 330,000. caspase activation, % (test concentration not listed);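 active = over half of replicate activation scores above 10%, or exactly half above 10 with the replicate mean above 10; inconclusive = replicate mean below 10 yet half the replicates above 10; inactive = over half of replicates below 10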;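 note: wells of about 30 µL received 50 nL stock; many hits fall short of the cut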
Ecoli rRNA inh: inhibits bacterial ribosomal RNA function over humanized ribosomes; E. coli WT GFP vs humanized-ribosome RFP mutants, fluorescence, 24 h; active compounds read low; DMSO median 0, no signal -100; GFP signal change (wild-type ribosome), % (no concentration beside the values); hit rate 1.6% among 350,000; AID 720706;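 active = significant combined selectivity score with lowered wild-type GFP, culture density cut under 30%, mutant RFP and density less affected; inactive = any of these conditions unmet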; note: one replicate is shown; some compounds called inactive have numbers as strong as hits
T cruzi inh: T. cruzi replication inhibition; T. cruzi beta-gal in NIH3T3, luminescence, 90 h; inhibition, % (no concentration beside the values); hit rate 1.4% among 300,000; AID 1885;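 active = mean inhibition across valid replicates above about 55%, limit read from the data; inconclusive = mean below that limit but half or more replicates reach it; inactive = mean below it, under half of replicates reach it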;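 note: signal also drops with host cell toxicity which is not excluded here; 0% = plate median of DMSO wells and 100% = zero luminescence signal; higher percent means less beta-gal luminescence so fewer parasites; stock transfer was 50 nL into about 50 µL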
Ecoli rRNA inh OD600: recorded beside Ecoli rRNA inh, whose call it bears; OD600 change, %; measured here: OD600 growth;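 optical density of the mix in the first replicate; 0 = DMSO median and -100 = no signal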
Ecoli rRNA inh RFP: recorded beside Ecoli rRNA inh, whose call it bears; RFP signal change, %; measured here: RFP humanized mutant strains;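 first replicate; 0 = DMSO median and -100 = no signal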
Starred values were filed as active, the others as inactive; ? = inconclusive; · = no result given; + = active, no number; & = joins results of further samples. Only part of the results is shown; rates above refer to the full screens.

Compound	B2AR ag	ALR inh	Calb FLC	Beta apoptosis	LANA-H2B inh	A1 inh	Ecoli rRNA inh	Ecoli rRNA inh OD600	Ecoli rRNA inh RFP	T cruzi inh
COc1ccc(CN2CCNC(=O)C2CC(=O)NCCCn2cccn2)cc1C (configuration not stated)	-2.1	3.1	-0.8	-2.5	4.3	0.7	7.7	-3.4	0.5	-0.3
COc1ccc(Cl)cc1N1C(=O)CN(Cc2cc(OC)c(OC)c(OC)c2)C1=S	17.0	-7.4	0.7	-7.4	-0.3	1.4	-17.6	-17.2	0.2	-4.4
COc1ccc(C(CNC(=O)C2CC2)N(C)C)cc1 (configuration not stated)	-2.9	-3.0	-8.7	·	1.2	-0.8	10.9	16.2	-0.4	3.3
COc1cc2c(cc1OC)C(C)N(C(C)=O)CC2 (configuration not stated)	3.2	-1.6	30.0	1.3	-7.2	0.0	·	·	·	-19.4
CCSc1nc(O)cc(=O)[nH]1	4.9	-0.8	6.6	0.3	0.5	-0.5	20.5	20.2	2.9	-8.0
CCOC(=O)CCNC(=O)N1CCCC(C(=O)c2cc(C)c(OC)c(C)c2)C1 (configuration not stated)	10.3	-5.3	-1.9	-5.2	-7.4	-0.2	6.5	2.7	-0.5	-9.8
CC(C)Nc1nc2n(c(=O)n1)CCN2C(C)C	-1.7	-6.5	-0.4	3.1	-7.6	-0.4	·	·	·	-8.3
Cc1ccc(NC(=O)COc2coc(CN3CCc4ccccc4C3)cc2=O)cc1Cl	10.3	-8.1	-1.4	·	-6.2	-1.1	16.0	20.5	2.7	-2.9
CCC(=O)NCc1c(C)c(C)n(Cc2ccccc2)c1-n1cccc1	-11.6	0.6	14.2	-4.8	-2.1	0.6	10.1	0.8	-7.2	6.1
CC(C)Oc1ccc(OCCCN2CCCCCC2)cc1	-4.5	-0.4	-7.8	1.2	-4.2	2.2	·	·	·	-4.7
CCOC(=O)N1CCN(C(=O)CN(c2cccc(C(F)(F)F)c2)S(=O)(=O)c2ccccc2)CC1	7.8	-4.2	8.3	4.8	-0.3	0.8	·	·	·	20.7
O=C(C1CC1)N1CCN(C(c2ccccc2)c2ccccc2)CC1	-3.0	0.3	7.2	-2.2	-1.6	0.1	·	·	·	8.8
Cc1cc(C)cc(NC(=S)N2C3CCCC2CC(NC(=O)C2CC2)C3)c1 (configuration not stated)	2.6	·	0.4	-4.1	1.4	-0.2	0.6	2.1	-1.4	-3.8
Cc1nn(Cc2ccccc2)c(C)c1C(=O)NCCN1C(=O)S/C(=C\c2ccc(F)cc2)C1=O	-3.5	4.9	2.9	-0.5	-2.1	-0.3	9.5	9.2	-1.6	-3.5
COc1ccc(NC(=O)CN(C)C(=O)c2cc(-c3ccc(Cl)cc3)nc3ccccc23)cc1	0.8	-2.3	18.9	2.2	-6.8	0.5	-1.9	-3.5	3.9	13.2
Cc1cc(NC(=O)COc2nnc(-c3ccccc3)c3ccccc23)no1	-8.5	-6.6	·	-2.0	-4.4	0.8	·	·	·	·
CCn1c(O)c(N=NC(=O)CNC(=O)/C=C/c2ccco2)c2ccccc21	-4.8	-11.6	-3.9	1.3	-4.1	-0.2	4.5	-4.4	0.6	9.8
Cc1cc(Cl)c(S(=O)(=O)N2CCCC2)cc1OCC(N)=O	-1.4	4.2	-4.0	-8.9	-2.8	-0.3	0.4	-6.7	-3.1	25.5
O=C(O)c1ccc(N(c2ccccc2)c2ccccc2)cc1	0.9	98.5*	·	-0.9	3.1	0.6	·	·	·	·
COc1cc(=O)[nH]c(SC(C)C(=O)Nc2ccc3ccccc3c2)n1 (configuration not stated)	10.7	-8.9	-10.4	1.4	2.1	-0.1	-3.8	-2.1	-2.7	2.1
Cc1noc(C)c1COc1ccc(C(=O)N2CCN(c3ccccc3O)CC2)cc1	8.0	6.9	·	-4.0	6.2	-0.1	-16.4	-18.2	-1.1	·
Fc1ccc(-c2csc(/C=C/c3ccc4c(c3)OCO4)n2)cc1	2.6	0.2	-24.8	5.8	-1.0	-1.1	-0.2	-4.7	-0.2	0.4
COc1ccc2c(c1OC)C(=O)N(c1ccc(C)c(C)c1)C2=O	-4.9	·	23.1	0.7	-2.7	-0.9	·	·	·	-4.3
O=C(O)c1cc(-c2ccc3ccccc3n2)nc2ccccc12	10.6	-12.2	11.9	-2.3	-0.8	-3.9	1.0	-5.4	7.0	-0.8
CN(Cc1cccs1)C(=O)/C=C/c1ccccc1[N+](=O)[O-]	3.5	-0.4	-0.2	-8.9	0.6	-0.3	3.5	4.1	-2.8	4.7
CCOP(=O)(c1ccccc1)c1nc(-c2ccccc2Cl)oc1N1CCCCC1 (configuration not stated)	-1.7	-3.5	6.4	-8.2	-7.9	1.2	·	·	·	20.8
CCc1noc(C)c1C(=O)N1CCCC(C(=O)c2ccc(OC)c(F)c2)C1 (configuration not stated)	-3.7	-4.6	-15.4	3.3	14.2*	-0.4	8.9	12.2	-2.1	5.3
CCn1c(SCc2ccc(Cl)cc2)nnc1-c1ccccc1	-5.2	-5.5	·	-1.0	0.9	-1.4	·	·	·	10.8
O=C(COC(=O)/C=C/c1cccc(Br)c1)NC1CCCC1	1.3	-0.8	·	-1.9	3.3	-1.3	·	·	·	·
CC[C@@]1(C(=O)OC)N[C@H](CN(C)C(=O)C2CCCCC2)[C@@H]2C(=O)N(C)C(=O)[C@@H]21	-4.3	-1.8	·	-3.5	+	0.6	-0.3	14.3	-0.5	·
O=C(O)C[C@H]1c2ccc(C(F)(F)F)cc2S(=O)(=O)N1Cc1ccccc1	-3.5	11.3	4.9	-11.3	-4.3	0.2	-4.4	0.5	-1.2	-17.1
Cc1nn(Cc2ccccc2Cl)c(C)c1C(=O)NC1=NCCS1	-1.9	0.9	-3.7	-2.3	-2.9	0.3	·	·	·	-16.0
COc1ccccc1N(C)S(=O)(=O)c1ccc(Cl)c(C(=O)OCc2c(C)noc2C)c1	-3.3	5.3	-3.3	7.3	-0.8	1.0	-34.9	-43.4	-6.7	5.8
Cn1ccnc1C(=O)C1CCCN(Cc2cn[nH]c2-c2ccc(-c3ccccc3)cc2)C1 (configuration not stated)	-5.5	-6.2	6.1	-13.7	18.0*	0.0	-3.7	-1.4	4.9	2.0
CC(=O)N1CCCc2cc(S(=O)(=O)N3CCN(C4CCCCC4)CC3)ccc21	2.9	-6.6	4.1	-1.2	-1.2	-0.1	·	·	·	-6.9
O=C(O)C(Cc1c[nH]c2ccccc12)N1C(=O)C2C3c4ccccc4C(c4ccccc43)C2C1=O (configuration not stated)	3.4	18.4	15.7	-5.2	-3.0	-0.1	8.5	-0.6	-0.5	-12.9
CC1(C)CC(=O)C2=C(C1)OC(N)=C(C#N)C2c1cn(-c2ccccc2)nc1-c1ccc(F)cc1 (configuration not stated)	1.4	-1.6	?	-0.7	-2.6	-0.2	-1.0	-4.4	9.2	-15.6
COc1ccc(CCN2CCCn3c2nc2c3c(=O)n(C)c(=O)n2C)cc1OC	11.1	·	-10.0	·	·	·	0.3	7.4	-2.3	8.0
COc1ccc(Br)c2c1C(=O)CC2	-7.3	3.0	4.2	-8.4	-4.9	0.4	0.0	4.6	0.6	-1.4
CC(C)(C(=O)O)n1cncn1	-1.3	1.1	-18.5	3.9	-10.3	-0.9	8.4	6.8	-0.8	-9.2
Cn1ccnc1Sc1ccc(/C=N/NC(=O)c2ccccc2[N+](=O)[O-])cc1[N+](=O)[O-]	-1.7	-4.0	-0.8	-9.2	6.1	0.2	·	·	·	0.4
COc1cc(S(=O)(=O)NC2CCCCC2C)ccc1F (configuration not stated)	-4.8	5.7	-13.7	1.0	0.4	0.3	-7.9	-14.1	3.6	-2.1
Cc1cccc(Nc2nc(NCc3ccco3)nc(N3CCOCC3)n2)c1	5.1	-4.9	11.2	23.6	-1.1	-0.4	·	·	·	43.7
COc1ccc(Oc2coc3c(CN4CCOCC4)c(O)ccc3c2=O)cc1	-16.4	2.4	-8.3	-2.6	-7.7	0.7	·	·	·	-15.7
Cc1ccccc1C(C(=O)NCc1ccco1)N(CC1CCCO1)C(=O)Cn1nnc2ccccc21 (configuration not stated)	9.2	-0.2	-2.2	-5.3	-0.8	1.0	·	·	·	11.8
O=C(O)c1ccc(-c2ncc[nH]2)cc1	9.2	-2.1	-9.4	-2.4	6.9	-1.3	27.6	18.2	1.4	-13.3
Cc1ccc(S(=O)(=O)C(C)C(=O)c2ccc3c(c2)OCCO3)cc1 (configuration not stated)	4.4	-4.0	-27.5	-8.8	-2.5	-0.4	·	·	·	-1.2
Cc1ccc(-c2nc3cccnc3s2)cc1NS(=O)(=O)c1cccs1	-8.6	2.1	-7.1	3.0	-2.3	-1.5	-46.7	-53.0	-7.7	-3.8
CCOC(=O)c1sc2ncnc(OC)c2c1C	-8.7	-11.8	6.8	-1.5	-8.1	-1.7	·	·	·	-10.2
COc1ccc(N(CC(=O)NCCSc2ccc(C)cc2)S(=O)(=O)c2ccccc2)c(OC)c1	11.2	·	9.2	-2.7	-1.1	0.9	-13.5	-15.2	5.3	21.6
COc1ccccc1N1CCN(C(=O)c2cc(-c3cccc(Cl)c3)on2)CC1	23.4	-5.9	18.3	-4.2	-2.2	0.2	·	·	·	15.7
Cc1ccc2c(c1)N(CC(=O)N1CCC(C)CC1)C(=O)c1cccnc1O2	-2.6	7.1	-2.1	0.0	-2.8	-1.3	4.4	0.8	2.8	-4.3
CC(Oc1ccc(Cl)cc1Cl)c1ccnc2nc(N3CCOCC3)nn12 (configuration not stated)	-3.8	2.0	-5.9	10.9	-1.0	0.9	-49.0	-69.7	-8.4	32.9
Cc1ccc(OCCNc2cc(N3CCN(CCO)CC3)ccc2[N+](=O)[O-])cc1C	5.2	45.1	-6.9	·	4.0	1.7	·	·	·	42.3
Cc1ccc(S(=O)(=O)CC(=O)N2CCN(c3ccc(F)cc3)CC2)cc1	-4.0	17.4	9.9	2.3	5.3	0.8	-0.9	-3.7	-1.5	-12.1
CCOC(=O)C1=C(C)NC(C)=C(C(=O)OCC)C1C(=O)OCC(=O)NC(C)C	8.8&14.6	0.9	-1.7	2.1	1.2	-1.2	5.3	7.2	3.7	-16.9
CC(NC(=O)COC(=O)c1ccc(N(C)C)cc1)c1ccccc1 (configuration not stated)	5.4	-14.3	-2.2	-3.3	-6.1	-0.4	10.5	11.5	-0.5	15.1
CCc1nnc(NC(=O)CSc2nnc3c4ccccc4n(C)c3n2)s1	-14.7	-0.2	-0.4	7.2	-2.0	1.1	2.9	11.0	-3.6	8.1
CCOC(=O)C(NC(=O)NC1CCCCC1)(c1ccccc1)C(F)(F)F (configuration not stated)	10.2	0.0	3.3	-3.9	3.0	0.0	·	·	·	6.9
